# Assay outcomes (PubChem BioAssay)
# HIV Env fusion: blocks HIV Env-driven cell-cell fusion. HeLa-JRFL Env/CEM21 cell fusion, luciferase. inhibition, % at 12.3 µM. hit rate 1.1% among 360,000. AID 651610;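 active = mean replicate inhibition score of at least 50 and every replicate individually at or above 50; inconclusive = only one of the two criteria met; inactive = mean below 50 and not all replicates reaching 50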;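 note: 0% = plate neutral controls and 100% = maraviroc near 300 nM; one replicate is shown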
# An asterisk follows results filed as active; ? = inconclusive; [ ] = dose if it differs, or a comment.
HIV Env fusion	Compound
7.3[16.7 µM]	CC(C)NC(=O)Nc1ccc2c(c1)CC(=O)N([C@H](C)CO)C[C@@H](C)[C@@H](CN(C)C(=O)NC1CCCCC1)O2
29.1[16.7 µM]	COc1ccccc1CNC(=O)C[C@@H]1C[C@H]2c3cc(NC(=O)Nc4ccc(C(F)(F)F)cc4)ccc3O[C@H]2[C@@H](CO)O1
11.4[16.7 µM]	Cc1noc(C)c1S(=O)(=O)N(C)C[C@H]1OCc2ccccc2-c2ccccc2C(=O)N([C@H](C)CO)C[C@H]1C
8.2[16.7 µM]	C[C@H](NC(=O)N(C)C[C@@H]1OCc2ccccc2-c2c(n(C)c3ccccc23)C(=O)N([C@H](C)CO)C[C@H]1C)c1ccccc1
0.7[16.7 µM]	C[C@@H]1CN([C@@H](C)CO)C(=O)CCCn2cc(nn2)CO[C@@H]1CN(C)C(=O)NC1CCCCC1
-2.2[16.7 µM]	CC(C)NC(=O)N(C)C[C@H]1OCCCC[C@@H](C)Oc2ccc(NC(=O)CCCN(C)C)cc2C(=O)N([C@@H](C)CO)C[C@@H]1C
24.3[16.7 µM]	CCCC(=O)Nc1ccc2c(c1)OC[C@@H](C)N(Cc1cc(-c3ccccc3)on1)C[C@@H](C)[C@H](OC)CN(C)C2=O
7.5[16.7 µM]	O=C(C[C@@H]1CC[C@@H]2[C@H](COC[C@@H](O)CN2C(=O)Nc2cccc(Cl)c2)O1)N1CCCCC1
11.2[16.7 µM]	O=C(C[C@H]1C[C@@H]2c3cc(NC(=O)CC4CC4)ccc3O[C@@H]2[C@@H](CO)O1)NCc1ccc(Cl)cc1
19.0[16.7 µM]	COc1ccc(CN(C)C[C@@H]2Oc3ccc(NS(=O)(=O)c4cccs4)cc3CC(=O)N([C@H](C)CO)C[C@H]2C)cc1
14.5[16.7 µM]	COc1cccc(S(=O)(=O)N(C)C[C@H]2OCc3ccccc3-c3ccccc3C(=O)N([C@H](C)CO)C[C@@H]2C)c1
10.0[16.7 µM]	C[C@@H]1CN([C@@H](C)CO)C(=O)c2cc(NC(=O)Cc3ccccc3)ccc2O[C@@H]1CN(C)Cc1ccc(C(=O)O)cc1
7.8	Cc1cc(O)cc(=O)n1-c1ccc(OC(F)F)cc1
-7.8[16.7 µM]	COc1ccc(C[C@H]2CCn3cc(nn3)COC[C@@H](CC(C)C)NC2=O)cc1
85.1*[16.7 µM]	COc1ccc(CNC(=O)N(C)C[C@@H]2OCc3ccccc3-c3c(n(C)c4ccccc34)C(=O)N([C@H](C)CO)C[C@@H]2C)cc1
-5.6[16.7 µM]	CC(=O)N1[C@@H]2Cn3c(ccc(/C=C/c4ccccc4)c3=O)[C@H]1[C@@H](C(=O)N(C)C)[C@@H]2CO
10.8	CSc1ccc(Oc2cccc3c2S(=O)(=O)N([C@H](C)c2ccccc2)C[C@@H](COCc2ccccc2)O3)cc1C
-1.5	COC(=O)C1CCN(C2CN(Cc3cn(Cc4ccc(C(F)(F)F)cc4)nn3)S(=O)(=O)C2)CC1 (stereo not given)
-5.2[16.7 µM]	COc1cccc(CNC(=O)C[C@@H]2CC[C@H](NC(C)=O)[C@H](CO)O2)c1
0.6[16.7 µM]	CC=Cc1ccc2n(c1=O)C[C@@H]1[C@@H](CO)[C@H](C(=O)NCC)[C@H]2N1Cc1cccc(Cl)c1 (mixture of isomers)
7.6[16.7 µM]	O=C(C[C@H]1C[C@@H]2c3cc(NC(=O)c4ccc5c(c4)OCO5)ccc3O[C@@H]2[C@H](CO)O1)NCc1ccccn1
8.3[16.7 µM]	C[C@H](CO)N1C[C@H](C)[C@@H](CN(C)Cc2ccc(C(F)(F)F)cc2)Oc2ccc(NC(=O)Cc3ccccc3)cc2CC1=O
-6.1[16.7 µM]	CO[C@H]1CC[C@@H]2CCOc3ccc(C#N)cc3C(=O)N(C)C[C@@H](OC)[C@@H](C)C(=O)N(C)C[C@@H]1O2
-17.0	COC(=O)[C@]12C[C@H](CC(=O)N3CCOCC3)C(=O)N(Cc3ccc4c(c3)OCO4)C1=C[C@H](COCc1ccccc1)O[C@@H]2C
2.4	C=CCN=C1NC(c2cccc(F)c2)C(C(=O)OC)=C(C)N1Cc1ccccc1C(F)(F)F (stereo not given)
-13.3[16.7 µM]	C[C@H](CO)N1C[C@H](C)[C@@H](CN(C)S(=O)(=O)c2ccc(Cl)cc2)Oc2ccc(NC(=O)Cc3cn(C)c4ccccc34)cc2CC1=O
-3.5[16.7 µM]	Cc1ccc(S(=O)(=O)N(C)C[C@H]2Oc3c(NS(=O)(=O)c4cn(C)cn4)cccc3C(=O)N([C@@H](C)CO)C[C@H]2C)cc1
-32.4[16.7 µM]	C[C@@H]1CN([C@H](C)CO)C(=O)c2c(c3ccccc3n2C)-c2ccccc2CO[C@@H]1CN(C)S(=O)(=O)c1cccc(C#N)c1
0.6[16.7 µM]	COCC(=O)Nc1ccc2c(c1)[C@@H]1C[C@H](CC(=O)N[C@H](C)c3ccccc3)O[C@@H](CO)[C@@H]1O2
6.9	C=CCCC1CN(Cc2ccc(OC)cc2)S(=O)(=O)c2c(Oc3ccc(F)cc3OC)cccc2O1 (stereo not given)

# Filtered by structure, those above with sulfur
HIV Env fusion	Compound
11.4[16.7 µM]	Cc1noc(C)c1S(=O)(=O)N(C)C[C@H]1OCc2ccccc2-c2ccccc2C(=O)N([C@H](C)CO)C[C@H]1C
19.0[16.7 µM]	COc1ccc(CN(C)C[C@@H]2Oc3ccc(NS(=O)(=O)c4cccs4)cc3CC(=O)N([C@H](C)CO)C[C@H]2C)cc1
14.5[16.7 µM]	COc1cccc(S(=O)(=O)N(C)C[C@H]2OCc3ccccc3-c3ccccc3C(=O)N([C@H](C)CO)C[C@@H]2C)c1
10.8	CSc1ccc(Oc2cccc3c2S(=O)(=O)N([C@H](C)c2ccccc2)C[C@@H](COCc2ccccc2)O3)cc1C
-1.5	COC(=O)C1CCN(C2CN(Cc3cn(Cc4ccc(C(F)(F)F)cc4)nn3)S(=O)(=O)C2)CC1 (stereo not given)
-13.3[16.7 µM]	C[C@H](CO)N1C[C@H](C)[C@@H](CN(C)S(=O)(=O)c2ccc(Cl)cc2)Oc2ccc(NC(=O)Cc3cn(C)c4ccccc34)cc2CC1=O
-3.5[16.7 µM]	Cc1ccc(S(=O)(=O)N(C)C[C@H]2Oc3c(NS(=O)(=O)c4cn(C)cn4)cccc3C(=O)N([C@@H](C)CO)C[C@H]2C)cc1
-32.4[16.7 µM]	C[C@@H]1CN([C@H](C)CO)C(=O)c2c(c3ccccc3n2C)-c2ccccc2CO[C@@H]1CN(C)S(=O)(=O)c1cccc(C#N)c1
6.9	C=CCCC1CN(Cc2ccc(OC)cc2)S(=O)(=O)c2c(Oc3ccc(F)cc3OC)cccc2O1 (stereo not given)

# More structures.
HIV Env fusion	Compound
4.5[16.7 µM]	CCCNC(=O)[C@H]1[C@H](CO)[C@H]2Cn3c(ccc(-c4cccnc4)c3=O)[C@H]2N1C(=O)c1ccccc1F
-9.5[16.7 µM]	CO[C@H]1CC[C@@H]2CCN(C)C(=O)[C@H](C)[C@@H](OC)CN(C)C(=O)c3cc(C#N)ccc3OC[C@@H]1O2
18.8[16.7 µM]	CO[C@H]1CC[C@@H]2CCOc3ccc(C#N)cc3C(=O)N(C)CCCC(=O)N(C)C[C@H]1O2
10.7	O=C(C(=O)N1CCN(S(=O)(=O)c2ccccc2)CC1)c1cccc(C(F)(F)F)c1
3.1[16.7 µM]	COc1ccccc1NC(=O)Nc1ccc2c(c1)C(=O)N(C)C[C@H](OC)[C@@H](C)CN[C@H](C)CO2
-3.5[16.7 µM]	Cc1ccc(S(=O)(=O)N(C)C[C@H]2Oc3ccc(NS(=O)(=O)c4cn(C)cn4)cc3C(=O)N([C@H](C)CO)C[C@@H]2C)cc1
-13.1[16.7 µM]	C[C@@H]1CN([C@H](C)CO)C(=O)c2cc(NS(=O)(=O)c3ccc(Cl)cc3)ccc2O[C@H]1CN(C)C(=O)Nc1ccc(C(F)(F)F)cc1
14.0[16.7 µM]	C[C@@H]1CN([C@@H](C)CO)S(=O)(=O)c2ccc(C#CC3CCCC3)cc2O[C@H]1CN(C)Cc1cncnc1
-14.7[16.7 µM]	CCCNC(=O)Nc1ccc2c(c1)OC[C@H](C)N(Cc1cccnc1)C[C@H](C)[C@@H](OC)CN(C)C2=O
-13.8	COC(=O)CC#C[C@H](C)[C@@H](NS(=O)(=O)c1ccc([N+](=O)[O-])cc1)C(C)(C)C
10.3[16.7 µM]	COC(=O)c1cn(CCNC(=O)Nc2ccccc2)nn1
6.7[16.7 µM]	COc1ccc(CNC(=O)N(C)C[C@H]2OCc3ccccc3-c3c(n(C)c4ccccc34)C(=O)N([C@H](C)CO)C[C@H]2C)cc1
-10.0	C[C@@H]1ON(C)[C@H]2C[C@H]3c4cc(Nc5ccccc5)ccc4CCN3C[C@@H]12
?	C[C@@H]1CN([C@H](C)CO)C(=O)c2cc(C#Cc3ccccc3F)cnc2O[C@H]1CN(C)C(=O)C1CCCCC1
?	COc1ccc(CN(C)C[C@H]2OCCCC[C@H](C)Oc3ccc(NC(=O)C4CCCCC4)cc3C(=O)N([C@@H](C)CO)C[C@@H]2C)cc1
-12.5[16.7 µM]	O=C(C[C@@H]1CC[C@H]2[C@@H](COC[C@H](O)CN2S(=O)(=O)c2ccccc2F)O1)NCc1ccccc1F
?	C[C@H](CO)N1C[C@H](C)[C@H](CN(C)C(=O)CCC(F)(F)F)OCc2ccccc2-c2c(n(C)c3ccccc23)C1=O
-13.1[16.7 µM]	C[C@@H]1CN([C@@H](C)CO)C(=O)c2cc(-c3cccnc3)cnc2O[C@@H]1CN(C)Cc1ccccc1
-19.5[16.7 µM]	O=C(C[C@H]1CC[C@@H]2[C@H](COC[C@@H](O)CN2Cc2cccc(Cl)c2)O1)Nc1nccs1
-9.5[16.7 µM]	CCCC(=O)Nc1ccc2c(c1)C(=O)N(C)C[C@@H](OC)[C@H](C)CN(C(=O)Cc1ccccn1)[C@H](C)CO2
6.0[16.7 µM]	CN1C(=O)c2cc(NC(=O)Nc3ccccc3Cl)ccc2OC[C@H]2O[C@H](CC(=O)NCCCN3CCOCC3)CC[C@@H]21
1.8	CC(=O)N(c1nc2ccccc2s1)N1C(=O)c2ccccc2C1=O
-19.7[16.7 µM]	CN(C)CC(=O)N1CC2(C1)[C@H](c1ccccc1)[C@@H](CO)N2C(=O)C1CCC1
6.7[16.7 µM]	CCCNC(=O)Nc1ccc2c(c1)C(=O)N(C)C[C@H](OC)[C@H](C)CN(C(=O)c1ccccc1F)[C@@H](C)CO2
-2.5[16.7 µM]	C/C=C/c1cccc(-c2nc(C(=O)NCc3ccccc3)cc3c2[C@H](CCO)N([S@@](=O)C(C)(C)C)C3)c1
-10.6	O=C(NCc1ccccc1)[C@@H]1CCCN1C(=O)[C@@H](NS(=O)(=O)c1ccc(F)cc1F)C1CCCCC1
-10.9[16.7 µM]	Cc1ccccc1S(=O)(=O)N1C[C@@H](O)COC[C@H]2O[C@@H](CC(=O)O)CC[C@@H]21
8.4[16.7 µM]	CNC[C@@H]1OCCCC[C@@H](C)Oc2ccc(NC(=O)NC3CCCCC3)cc2C(=O)N([C@H](C)CO)C[C@@H]1C
-5.2	COC(=O)C1=C(C)N(C)C(=NCc2ccccc2)NC1c1ccccc1 (stereo not given)
-5.8[16.7 µM]	CN(C)C(=O)[C@H]1[C@H](CO)[C@H]2Cn3c(cccc3=O)[C@@H]1N2C(=O)c1ccc(F)cc1
-15.7	COc1ccc(N2C[C@@]3(O)CC[C@@H](O)[C@@H](OC)[C@@H]3[C@@](C)(O)[C@@H]2CC=C(C)C)cc1
-5.1[16.7 µM]	C[C@@H]1CN([C@H](C)CO)C(=O)c2ccccc2-c2ccccc2CO[C@@H]1CN(C)C(=O)[C@H]1CCCN1C
-28.7[16.7 µM]	COc1ccc2c3c(n(C)c2c1)[C@H](CO)N(C(=O)Nc1ccc(F)cc1)CC31CCN(S(=O)(=O)c2cccc(F)c2)CC1
-15.7[16.7 µM]	COc1ccc(CN(C)C[C@H]2Oc3ccc(NC(=O)Cn4cnnn4)cc3C(=O)N([C@@H](C)CO)C[C@@H]2C)cc1
-31.2[16.7 µM]	COc1ccc(S(=O)(=O)Nc2ccc3c(c2)[C@@H]2C[C@@H](CC(=O)N(C)C)O[C@H](CO)[C@@H]2O3)cc1
-10.7[16.7 µM]	C[C@H]1CCCCO[C@H](CN(C)C(=O)c2ccccc2)[C@@H](C)CN([C@@H](C)CO)C(=O)c2cc(NC(=O)c3ccccc3)ccc2O1
-7.5[16.7 µM]	COc1ccccc1CNC(=O)C[C@@H]1C[C@H]2c3cc(NS(=O)(=O)c4ccc(F)cc4)ccc3O[C@H]2[C@@H](CO)O1
0.9[16.7 µM]	C[C@@H]1CN([C@@H](C)CO)C(=O)c2cc(N(C)C)ccc2O[C@@H](C)CCCCO[C@H]1CN(C)C
34.8	Cc1cc(Nc2cc(Cl)cc(Cl)c2)cc(=O)n1-c1cc(Cl)cc(Cl)c1
-5.0[16.7 µM]	C[C@H]1CCCCO[C@@H](CN(C)CC2CC2)[C@@H](C)CN([C@@H](C)CO)C(=O)c2cc(NS(=O)(=O)c3ccccc3)ccc2O1
2.9[16.7 µM]	CN1C(=O)c2cc(NC(=O)c3cccc(C(F)(F)F)c3)ccc2OC[C@H]2O[C@@H](CC(=O)O)CC[C@H]21
3.4	C[C@@H]1ON(C)[C@H]2C[C@H]3c4[nH]c5cccc(-c6ccccc6)c5c4CCN3C[C@@H]12
-27.6	Cc1[nH]c2ccccc2c1C(=O)c1c(N)[nH]c(C(=O)c2ccccc2)c1-c1ccc(Cl)cc1
-6.8[16.7 µM]	CN1CCN(C(=O)[C@@H]2[C@@H](CO)[C@@H]3Cn4c(cccc4=O)[C@H]2N3Cc2ccncc2)CC1
12.1[16.7 µM]	CCCC[C@@H](O)C1=C(C)Cn2c(=O)n(-c3ccccc3)c(=O)n2[C@H]1CO
-8.8[16.7 µM]	COc1ccccc1NC(=O)N[C@@H]1CC[C@@H](CCNS(=O)(=O)c2ccccc2)O[C@H]1CO
9.3[16.7 µM]	O=C([C@@H]1[C@@H](CO)[C@@H]2Cn3c(ccc(-c4ccncc4)c3=O)[C@H]1N2CCC(F)(F)F)N1CCCCC1

# This is a subset (hit frequency here may not be typical).
